From PubChem
MT stabilizer: microtubule stabilizers in HeLa cells, primary screen, imaging, high-content imaging; 200,000 compounds, 0.83% hits; % tubulin-high responders, % at 10 µM; AID 2205, 2009; HeLa tubulin immunostaining HCS, 24 h; share of cells brighter than vehicle mean+2SD;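 active = plate Z-score above 3 for both tubulin-high and condensed-nucleus cell shares, with cell loss under 80%, at 10 µM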;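 also: anti alpha tubulin signal scored within the nucleus-defined area of each cell; some results filed as inactive read as strong as hits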
ER stress rescue: rescue of cells from ER stress-induced death, primary screen, 384-well, CSM14.1, thapsigargin, ATP luminescence (AID 1222) | 190,000 tested, under 10 active | one-dose cellular ATP content (survival), % at 20 µM; EC50 in µM for titrated hits | CSM14.1 thapsigargin-induced death rescue, ATP luminescence; higher % means a stronger effect;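 active = EC50 below 50 µM in the dose-response confirmation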;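 also: death triggered by thapsigargin at about 15 µM added after 2 h compound pretreatment; cell ATP read after overnight thapsigargin exposure of roughly 18 to 22 hours; normalized against plate controls of thapsigargin alone and 5% DMSO vehicle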
Insulin prom up: insulin promoter activators in MIN6 cells, imaging, high-content screening, mouse beta cells; MIN6 insulin promoter-GFP reporter; hits give high values; z-score at 5 µM; 190,000 compounds, 0.3% hits;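 active = z-score above 3 at 5 µM with at least 500 cells counted in the well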
T cell HTS: modulators of CD8 T cell-vesicle binding, primary screen, mouse 2C CD8+ T cells, flow cytometry; calls only at 7 µM; 330,000 compounds, 0.068% hits; 2C CD8+ T cell-vesicle binding; hits give low values;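 active = response, share of CD8 T cells binding vesicles, and their 90th percentile fluorescence all below set limits, cut at about 80% in these data, passing the limit was not always enough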
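material = purified 2C TCR transgenic mouse naive CD8+ T cells | controls = Unloaded micro-vesicles (low), QL9 vesicles with 0.7% DMSO (high) | detection = cytometric PE anti-B7-1 and Alexa647 anti-CD8 signals after 1% paraformaldehyde fixation | incubation = binding step 1.5 h, 37 °C, antibody labelling 20 min, ice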
Salmonella PhoP GFP: inhibitors of PhoP regulon expression, primary screen, Salmonella Typhimurium, GFP reporter (AID 1863); S. Typhimurium PhoP-regulated promoter GFP reporter, 4 h; higher % means a stronger effect; inhibition, % at 50 µM; hits with a dose series show IC50 in µM; 300,000 compounds, 0.16% hits;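 active = inhibition over 29.93%, a cutoff 3 SD above the screen mean, later confirmed by dose response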;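 also: 0% = low Mg2+ inducing control and 100% = high Mg2+ repressing control; strong numbers were not always called active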
Autophagy HCS: autophagy modulators in MEF cells, primary screen, imaging, high-content, MEF GFP-LC3; calls only at 10 µM (by protocol); 190,000 compounds, 0.98% hits; AID 463193, 2010; MEF GFP-LC3 puncta imaging; test concentration mostly 10 µM;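 active = percentage of spot-positive cells more than 3 SD above its plate mean, without a fluorescence outlier flag or 80% toxicity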;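 also: spot-positive cell cutoff set from DMSO-treated cells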
Dynein cargo inh: inhibitors of GR-EGFP nuclear translocation, primary screen, dynein cargo transport inhibitor project, imaging, high-content, 3617.4 mouse cells; z-score, hits read low; test concentration mostly 20 µM; stimulated with dexamethasone, 1 µM; hits give low values; 220,000 compounds, 0.47% hits;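 active = plate z-score of nuclear minus cytoplasmic receptor signal below a set negative limit, without overly bright fluorescence or cell loss, cut at about -3.5 in these data, passing the limit was not always enough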;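 also: z-score of nuclear minus cytoplasmic ring GR-EGFP intensity difference per well; some compounds called inactive have numbers as strong as hits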
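Also added: dexamethasone, 1.0 µM final. Medium: tet-free, stripped-serum medium. Detection: fixed, Hoechst-stained cells imaged at 10x for EGFP. Read-out: nuclear-to-cytoplasmic GR-EGFP distribution per well. Times: induction 48 h, compound 1 h, agonist 30 min.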
Dynein cargo inh cytoplasmic EGFP: recorded beside Dynein cargo inh, whose call it bears; z-score; measured here: cytoplasmic GR-EGFP intensity; hits give high values
Dynein cargo inh nuclear GR-EGFP: recorded beside Dynein cargo inh, whose call it bears; z-score; measured here: nuclear GR-EGFP intensity;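 lower value marks the stronger effect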
Dynein cargo inh cell count: recorded beside Dynein cargo inh, whose call it bears; z-score; measured here: cell count per field
Insulin prom up cell count: also measured in Insulin prom up; calls as there; cell count; measured here: cytotoxicity, nuclei count;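 total cells summed across four imaged fields per well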
T cell HTS vesicle-bound %: also measured in T cell HTS; calls as there; double positive events, %; measured here: CD8+ vesicle-bound cell fraction;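 binding gate set so that unloaded-vesicle control wells show 10% double positive cells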
MT stabilizer Hoechst-high %: also measured in MT stabilizer; calls as there; % Hoechst-high responders; measured here: nuclear condensation Hoechst responders;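 share of cells brighter than vehicle mean plus two SD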
MT stabilizer cytotoxicity %: recorded beside MT stabilizer, whose call it bears; toxicity, %; measured here: cytotoxicity by cell density;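 0% = mean cell density of plate MIN control wells and 100% = no cells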
Autophagy HCS cell loss 18 h: second read-out of Autophagy HCS, no call of its own (marks repeat the call); toxicity, %; measured here: cell loss, nuclei count;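 cell loss after 18 h compound exposure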
Starred values were filed as active, the others as inactive; i = inactive; x = not tested or not shown.

no.	canonical_smiles	Dynein cargo inh	MT stabilizer	Insulin prom up cell count	Autophagy HCS cell loss 18 h	Dynein cargo inh cytoplasmic EGFP	Dynein cargo inh nuclear GR-EGFP	T cell HTS vesicle-bound %	Salmonella PhoP GFP
1	CC1=CC(C)(C)N(C(=O)c2ccccc2)c2ccc(C)cc21	-0.86	2.5	1469	-1	-0.22	-1.2	x	-6%
2	C/C(=N/NC(=O)c1ccc(NC(=O)c2ccc(F)cc2)cc1)c1ccccc1	-0.24	2.5	1506	5	0.29	0.61	17	-3%
3	COCCn1nc2cc(C(=O)NCC34CC5CC(CC(C5)C3)C4)ccc2c1OC	-0.19	2.0	1509	20	-0.19	0.34	37	-7%
4	Cc1nn(C(=O)c2ccco2)c(C)c1Sc1ccc(Br)cc1	-0.2	1.9	1464	15	-0.17	0.61	57	-6%
5	Cc1cccc(-n2ncc3c(NCCCN4CCCC4=O)ncnc32)c1	0.018	2.5	1534	4	-0.23	0.14	50	-5%
6	CCc1cccc(CC)c1-n1c(SCc2cc(=O)n3ccsc3n2)nnc1-c1cccnc1	-0.4	3.1	1700	35	-0.17	0.53	54	3%
7	Cc1nc(NC(=O)c2ccc(Cl)cc2)sc1-c1csc(Nc2cccc(F)c2)n1	-0.05	40*	1528	7	0.012	-0.13	46	7%
8	Cc1nc(N2CCN(S(=O)(=O)c3ccccc3)CC2)c2c3c(sc2n1)CC(C)CC3 (centres undefined)	-0.67	1.9	1470	-4	-0.2	-0.39	x	-7%

no.	Autophagy HCS	T cell HTS	Insulin prom up	MT stabilizer Hoechst-high %	Dynein cargo inh cell count	ER stress rescue	MT stabilizer cytotoxicity %
1	i	x	-0.13	1.1	0.049	-0.2%	0.6
2	i	i	0.75	2.5	-0.011	-1.5%	9.4
3	i	i	0.21	1.8	-0.086	1.8%	5.3
4	i	i	0.21	2.5	-0.81	0.3%	9.7
5	i	i	0.58	1.8	0.51	-4.4%	8.9
6	i	i	-0.76	0.9	0.11	-1.3%	2.5
7	i	i	-1.9	18*	0.51	-1.1%	36*
8	i	x	-0.2	1.1	0.88	-0.7%	7.1

Part of the list above with just Autophagy HCS cell loss 18 h:
#	mol	Autophagy HCS cell loss 18 h
3	COCCn1nc2cc(C(=O)NCC34CC5CC(CC(C5)C3)C4)ccc2c1OC	20
4	Cc1nn(C(=O)c2ccco2)c(C)c1Sc1ccc(Br)cc1	15

New compounds follow:
no.	canonical_smiles	Dynein cargo inh	MT stabilizer	Insulin prom up cell count	Autophagy HCS cell loss 18 h	Dynein cargo inh cytoplasmic EGFP	Dynein cargo inh nuclear GR-EGFP	T cell HTS vesicle-bound %	Salmonella PhoP GFP
9	O=C(Nc1ccc(Cl)cc1)Nc1nc(-c2sccc2Br)cs1	0.39	1.7	1676	-17	-0.17	0.93	17	4%
10	Cc1cc2ccccc2n1CCNC(=O)c1ccccc1	-0.2	4.0	1453	-6	-0.14	0.083	50	-5%
11	Cc1ccsc1-c1nc(-c2ccccc2)c(-c2ccccc2)[nH]1	0.47	4.7	1582	17	-0.21	0.77	17	-1%
12	Cc1nnc(N(C)C(=O)c2ccccn2)s1	-0.7	2.8	1643	1	-0.25	-1.2	23	-6%
13	COc1ccc(/C=N/NC(=O)Cc2csc(Nc3cccc(C(F)(F)F)c3)n2)cc1C	2.9	0.8	1646	-19	-0.17	2.2	47	12%
14	CCOC(=O)c1c(C)[nH]c(C(=O)COC(=O)c2ccccc2NC(=O)c2ccco2)c1C	-0.97	26	1655	-7	-0.12	-0.41	36	-10%
15	O=C(NCc1cccnc1)C1c2ccccc2C(=O)N1C1CCCCCCC1 (centres undefined)	-0.98	3.9	1606	12	-0.27	-0.62	28	-5%
16	O=C(NC1CCCC1)C(c1ccsc1)N(Cc1ccccc1)C(=O)Cc1cccs1 (centres undefined)	-0.26	0.8	1646	-14	0.63	-0.1	30	7%

no.	Autophagy HCS	T cell HTS	Insulin prom up	MT stabilizer Hoechst-high %	Dynein cargo inh cell count	ER stress rescue	MT stabilizer cytotoxicity %
9	i	i	-0.28	1.8	0.2	-1.5%	6.4
10	i	i	0.02	3.7	-1.8	-1.2%	5.1
11	i	i	-0.61	3.8	0.69	-0.9%	6.0
12	i	i	2.3	1.6	0.12	-1.4%	4.3
13	i	i	-0.45	0.8	-1.5	1.4%	5.8
14	i	i	-0.19	3.1	0.29	-1.1%	19
15	i	i	-0.15	1.4	0.94	-1.4%	3.0
16	i	i	-0.43	1.5	-0.49	0.9%	11

Sorted by value in Dynein cargo inh cytoplasmic EGFP (lowest first): 3 from the list above
# | structure | Dynein cargo inh cytoplasmic EGFP
9 | O=C(Nc1ccc(Cl)cc1)Nc1nc(-c2sccc2Br)cs1 | -0.17
10 | Cc1cc2ccccc2n1CCNC(=O)c1ccccc1 | -0.14
16 | O=C(NC1CCCC1)C(c1ccsc1)N(Cc1ccccc1)C(=O)Cc1cccs1 (centres undefined) | 0.63

Following part:
no.	canonical_smiles	Dynein cargo inh	MT stabilizer	Insulin prom up cell count	Autophagy HCS cell loss 18 h	Dynein cargo inh cytoplasmic EGFP	Dynein cargo inh nuclear GR-EGFP	T cell HTS vesicle-bound %	Salmonella PhoP GFP
17	CCC(=O)NC(=S)NNC(=O)c1ccc(OC)cc1	-0.52	2.0	1532	9	-0.24	-0.14	20	0%
18	CC(=O)c1cc2c(cc1NC(=O)c1c(-c3ccccc3)noc1C)OCO2	0.00023	1.2	1538	7	-0.19	-0.4	44	17%
19	CCC(Sc1nc(C)cc(=O)[nH]1)C(=O)Nc1nc2c(s1)CCCC2 (centres undefined)	-0.53	1.8	1492	6	-0.23	-0.27	19	-1%
20	CC(=O)c1cn(CCCCCCCCCCn2cc(C(C)=O)c(=O)[nH]c2=O)c(=O)[nH]c1=O	-0.5	3.7	1570	-28	-0.16	0.22	x	19%
21	CCOC(=O)NC(NC(=O)OCC)C(=O)c1ccc(F)cc1	-0.53	5.5	1704	17	-0.14	-0.077	46	-14%
22	CCNc1nc(NC(C)C)nc(SCCOc2ccc(C)cc2)n1	1.9	2.7	1256	-8	-0.21	-0.31	33	-4%
23	O=S(=O)(NCCOCC(F)(F)C(F)F)c1ccc2oc3ccccc3c2c1	-0.34	2.1	1352	28	-0.23	-0.015	18	2%
24	O=C(Nc1cc2c(oc1=O)CCCC2=O)c1ccc(Cl)cc1	0.21	2.3	1596	-12	-0.095	-0.12	49	-7%

no.	Autophagy HCS	T cell HTS	Insulin prom up	MT stabilizer Hoechst-high %	Dynein cargo inh cell count	ER stress rescue	MT stabilizer cytotoxicity %
17	i	i	-0.61	1.4	0.042	i	6.9
18	i	i	-0.55	1.5	-0.55	-0.2%	3.9
19	i	i	1.8	3.4	0.69	-1.7%	2.7
20	i	x	-0.19	1.6	0.35	2.5%	8.3
21	i	i	0.02	4.2	0.57	-1.5%	5.6
22	i	i	-0.17	1.2	-0.5	1.0%	6.8
23	i	i	-0.52	1.0	-0.25	0.3%	11
24	i	i	-0.16	2.0	0.43	-0.6%	8.6

Next section
no.	canonical_smiles	Dynein cargo inh	MT stabilizer	Insulin prom up cell count	Autophagy HCS cell loss 18 h	Dynein cargo inh cytoplasmic EGFP	Dynein cargo inh nuclear GR-EGFP	T cell HTS vesicle-bound %	Salmonella PhoP GFP
25	O=C(Nc1ccc2oc(=O)ccc2c1)c1cccnc1Cl	0.33	1.9	1571	2	-0.18	-0.17	15	-3%
26	CCC(C)Sc1nnc(CSc2nc3nc(C)cc(C)n3n2)o1 (centres undefined)	-0.4	2.3	1504	6	-0.19	0.34	30	-6%
27	CCNC(=S)NS(=O)(=O)c1ccccc1	-0.096	1.5	1487	7	-0.1	-0.28	52	-6%
28	CCCCCCNCc1cccc(Br)c1	0.38	2.2	1606	18	-0.23	0.83	41	12%
29	CC1CCN(CCCCOc2ccccc2[N+](=O)[O-])CC1	-0.44	1.7	1555	6	-0.19	-0.3	11	3%
30	O=C(COC(=O)c1ccccc1Nc1ccc(SC(F)F)cc1)NCc1ccco1	-0.51	1.1	1533	24	-0.2	-0.32	6	-11%
31	CS(=O)(=O)N1CCN(c2ccc(C(=O)NC3C4CC5CC(C4)CC3C5)cc2[N+](=O)[O-])CC1 (centres undefined)	-0.51	2.1	909	23	0.055	-0.35	5	2%
32	O=C(Nc1ccccc1)c1ccc(Cn2cc(C(F)(F)F)ccc2=O)cc1	0.15	3.0	1631	-7	-0.21	-0.17	37	4%
33	O=C(c1ccc2c(c1)C(=O)N(Cc1ccco1)C2=O)N1CCOCC1	-0.12	3.7	1661	18	-0.3	0.067	50	3%

no.	Autophagy HCS	T cell HTS	Insulin prom up	MT stabilizer Hoechst-high %	Dynein cargo inh cell count	ER stress rescue	MT stabilizer cytotoxicity %
25	i	i	-0.86	1.0	-0.13	2.0%	1.0
26	i	i	0.04	1.6	0.077	-1.2%	8.8
27	i	i	0.05	1.6	0.51	0.9%	4.9
28	i	i	-0.43	1.8	-0.14	-1.1%	4.3
29	i	i	-0.18	2.3	0.36	0.4%	5.9
30	i	i	0.62	1.6	0.34	-0.9%	7.5
31	i	i	-0.82	1.1	0.68	2.7%	7.2
32	i	i	0.2	1.3	0.51	-0.8%	7.9
33	i	i	-0.1	1.9	0.22	0.4%	5.7

The list is partial; count on the stated rates, not on these rows.
